hNpr1 antagonist = human Npr1 receptor antagonism | AID 1347048 | 76,000 tested, 1.6% active | HEK293 hNpr1 GloSensor cGMP, ANP-stimulated luminescence | Potency, µM (titrated, usually from 46.3 µM), without a hit: at the highest dose activity change, negative = inhibition, hits mostly inhibitors; active = well fitted inhibition curve with a large enough effect; inconclusive = small, poorly fitted or top-dose-only effect; inactive = no such curve, though single readings can be large or run the other way;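 also: nearly all actives have a fitted effect of over 60% in size; nearly all hits also lower the signal before the agonist is added; a reference antagonist and vehicle were the controls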
Target sequence (P16066 whole entry, looked up): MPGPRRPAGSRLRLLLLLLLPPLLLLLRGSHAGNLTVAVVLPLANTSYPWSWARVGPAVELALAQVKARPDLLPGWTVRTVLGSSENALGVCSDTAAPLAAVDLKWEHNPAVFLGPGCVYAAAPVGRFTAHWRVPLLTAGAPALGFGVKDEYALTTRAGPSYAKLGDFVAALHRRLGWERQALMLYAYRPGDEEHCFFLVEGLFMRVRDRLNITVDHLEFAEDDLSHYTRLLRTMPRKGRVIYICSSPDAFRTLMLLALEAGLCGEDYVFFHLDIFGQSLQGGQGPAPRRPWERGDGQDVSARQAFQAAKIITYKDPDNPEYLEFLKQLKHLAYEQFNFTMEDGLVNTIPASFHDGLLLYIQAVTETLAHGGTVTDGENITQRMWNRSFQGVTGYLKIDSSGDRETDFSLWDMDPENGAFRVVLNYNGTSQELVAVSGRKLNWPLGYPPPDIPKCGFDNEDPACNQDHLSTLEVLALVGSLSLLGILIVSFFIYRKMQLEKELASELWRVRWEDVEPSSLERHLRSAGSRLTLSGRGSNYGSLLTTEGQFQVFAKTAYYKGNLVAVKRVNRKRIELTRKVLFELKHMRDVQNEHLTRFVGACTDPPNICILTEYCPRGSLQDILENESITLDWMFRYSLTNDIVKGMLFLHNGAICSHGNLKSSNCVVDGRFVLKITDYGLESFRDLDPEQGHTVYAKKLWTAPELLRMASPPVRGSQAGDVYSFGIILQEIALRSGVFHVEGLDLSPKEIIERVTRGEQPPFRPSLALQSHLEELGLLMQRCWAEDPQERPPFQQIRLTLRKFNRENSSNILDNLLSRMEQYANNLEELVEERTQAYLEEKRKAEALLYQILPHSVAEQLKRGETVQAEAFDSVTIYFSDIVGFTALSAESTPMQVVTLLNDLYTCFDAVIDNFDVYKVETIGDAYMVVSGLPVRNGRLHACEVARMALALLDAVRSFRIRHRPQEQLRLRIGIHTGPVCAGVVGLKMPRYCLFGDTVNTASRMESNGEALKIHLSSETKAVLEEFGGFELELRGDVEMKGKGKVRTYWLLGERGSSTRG
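HEK293 cells stably expressing human Npr1 and cGMP GloSensor pGS-40F, loaded 2 h with 2% GloSensor reagent, given compound 30 min at room temperature. Luminescence read before and 20 min after 0.1 nM hNppA.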
The depositor's hits bear a star; u = inconclusive; [ ] = dose if it differs, or a comment. % is scaled to controls: 0 for no effect and ±100 for the full control effect; potency is read from the fitted curve at half-maximal effect.

no.	compound	hNpr1 antagonist
1	COCCN1CCCN(C(=O)c2cccc(Cl)c2)c2ccccc21	-5%
2	CC(C)c1nnc(C2CN(C(=O)CCC3CCCCC3)CC23CCOCC3)o1 (stereo not drawn)	2%
3	CC[C@H]1CN(C(=O)C(C)(C)C)CC[C@H]1CC(=O)Nc1ccccc1	0%[70.6 µM]
4	COc1ccc(OC)c2nc(-c3cccc(C)c3)c(CN3CCCC(O)C3)cc12 (stereo not drawn)	-2%
5	CCc1cccc(NC(=O)Cn2c(N(C)Cc3ccccc3)nc(C)cc2=O)c1	8.9µM*
6	C[S+](=O)([O-])N1CCC2(CC1)C(=NC1CCCC1)NC(=O)N2c1cc(F)cc(F)c1	0%
7	CC1(C(=O)NCCc2ccccn2)COCc2cnc(Nc3ccccc3)nc21 (stereo not drawn)	2%[70.6 µM]
8	COCC1CN(C(=O)Cc2c[nH]c3ccccc23)CC12CCOCC2 (stereo not drawn)	4%

Printed as active in hNpr1 antagonist, of those listed so far:
no.	compound	hNpr1 antagonist
5	CCc1cccc(NC(=O)Cn2c(N(C)Cc3ccccc3)nc(C)cc2=O)c1	8.9µM*

The list continues:
no.	compound	hNpr1 antagonist
9	Cc1ccc(CN2C[C@H](O)C[C@H]2c2nc(-c3ccc(F)cc3)no2)cc1	2%[70.6 µM]
10	CN1C(=O)[C@@H]2C[C@@H](CN2C(=O)c2ccc3c(c2)OCO3)Oc2ccccc21	0%[70.6 µM]
11	CCc1ccc(NC(=O)Cn2c(=O)c(-c3noc(C)n3)c3n(c2=O)CCCCC3)cc1	11%
12	COc1cccc(S(=O)(=O)N2C[C@@H](Oc3cccnc3)C[C@@H]2C(=O)N2CCOCC2)c1	6%
13	OCCC1CN(Cc2cc(F)cc(F)c2)CCN1Cc1cccs1 (stereo not drawn)	6%
14	Cc1ccc(N2Cc3c(NCC4CC4)ncnc3N(C)CC2=O)cc1	6%[70.6 µM]
15	O=C(c1ccc(F)cc1)N1CCC(Oc2cccnc2)C1 (stereo not drawn)	11%
16	Cc1ccc(F)cc1S(=O)(=O)N1CCC(n2cnnc2C2CC2)CC1	7%
17	O=C(c1ccco1)N1CCN(C(=O)c2cc3c(s2)CN(C2CC2)C3)CC1	0%
18	N#CCCN1CCN(C(=O)CCc2cc3ccccc3[nH]c2=O)CC1	2%
19	COc1cc(OC)cc(C(=O)N2CCC3(CC2)N(c2ccccc2)C(=O)CS3(=O)=O)c1	2%
20	Cc1[nH]cnc1-c1nccn1-c1ccc(CCC(=O)NC2CC2)cc1	2%
21	CC(C)(C)NC(=O)N1CCC2(CC1)CC(Cc1nc(-c3cnccn3)no1)CCO2 (stereo not drawn)	5%
22	Cc1cc(=O)n(CC(=O)Nc2ccccc2C)c(N2CCC(C)CC2)n1	0%
23	Cc1cnc(CC2CCCN(C(=O)c3ccncc3)C2)n1CC1CC1 (stereo not drawn)	2%
24	O=C(Nc1cccnc1)[C@@H]1C[C@@H](c2ccc(F)cc2)N(Cc2ccccc2)C1	u
25	COc1ccc2c(=O)n(CC(=O)N3CCC(OC)C3)ccc2c1OC (stereo not drawn)	-2%
26	COC(=O)c1cccc(C(=O)N[C@H]2CO[C@H]3[C@@H]2OC[C@H]3OC(=O)Nc2cccc(C(F)(F)F)c2)c1	u
27	COCC1CN(C)CC12CCN(Cc1ccc(Cl)c(F)c1)CC2 (stereo not drawn)	-11%
28	O=C(c1ccccc1F)N1CCC(CCOc2ccccc2)C1 (stereo not drawn)	-18%
29	COc1cccc(N2CCN(C(=O)c3cn4ccnc(-c5ccccc5)c4n3)CC2)c1	-14%
30	COc1ccc(-c2cc(N3CCCN(C(=O)c4ccc(C)c(F)c4)CC3)n[nH]2)cc1	-14%
31	Cc1nc(-c2c3n(c(=O)n(Cc4cccc(Br)c4)c2=O)CCCC3)no1	1%
32	CN(C)c1ccc(C(=O)NC2CCN(c3cc(-c4cccs4)[nH]n3)C2)cc1 (stereo not drawn)	-3%
33	CC(C)(C)CC(=O)Nc1ccc([C@@H](O)[C@H]2COCC(=O)N2Cc2ccccc2F)cc1	3%[70.6 µM]
34	O=C1NCCCCCN(C(=O)Nc2ccccc2)[C@H]2CCCC[C@@H]12	-2%
35	O=C(c1ccc(C(F)(F)F)cc1)N1CCC(c2nn(-c3ccccc3)c(=O)[nH]2)CC1	3%
36	COCCc1nncn1C1CCN(C(=O)Cc2c(F)cccc2Cl)CC1	3%
37	O=C(NCc1ccccc1)N1CCCC(c2nccn2CC2CCC2)C1 (stereo not drawn)	1%
38	COCc1cc(C[C@@H]2CC[C@H](O)[C@@H](CNC3CCN(C(C)=O)CC3)O2)no1	6%[70.6 µM]
39	Cn1cc(CN2C[C@H](C(=O)Nc3ccncn3)C[C@H]2c2cccc(C(F)(F)F)c2)cn1	-15%[70.6 µM]
40	COc1cccc(CC(=O)N2CCn3c(nnc3[C@@H]3C[C@@H](O)CN3C(C)C)C2)c1	3%
41	CCOCCn1nc(C)cc1C(=O)N1CC[C@@](O)(COC)C(C)(C)C1	2%
42	CCCOc1nccnc1NC1CCN(C(=O)c2cccs2)CC1	3%
43	Cn1cccc1C(=O)N1CCC2(CC1)C(=O)NCN2Cc1ccc(Cl)cc1	u
44	CN(Cc1ccccc1)C(=O)C[C@@H]1O[C@H](CNC(=O)c2ccno2)[C@@H](O)[C@H]1O	-4%[70.6 µM]
45	CNC(=O)c1ccc(CN2CCCC(CCc3ccccc3C(F)(F)F)C2)o1 (stereo not drawn)	-16%
46	Fc1ccc(CN2CCNc3cnc(-c4ccccc4)cc3C2)cc1F	-2%[70.6 µM]
47	COc1cccc(-c2cc(-c3c(C)noc3C)cc3c2C(=O)N(C)C3=O)c1OC	7%[70.6 µM]
48	O=C1NCCCCCCN(S(=O)(=O)Cc2ccccc2F)[C@H]2CCC[C@@H]12	-3%

Some of these compounds in order of formula weight, smallest number first.
no.	compound	hNpr1 antagonist
1	COCCN1CCCN(C(=O)c2cccc(Cl)c2)c2ccccc21	-5%
43	Cn1cccc1C(=O)N1CCC2(CC1)C(=O)NCN2Cc1ccc(Cl)cc1	u
31	Cc1nc(-c2c3n(c(=O)n(Cc4cccc(Br)c4)c2=O)CCCC3)no1	1%

Further results
nr	SMILES	hNpr1 antagonist
49	CN(Cc1ccccc1C(F)(F)F)S(=O)(=O)c1cccc(C(F)(F)F)c1	23%
50	O=C1COCC2(CN1Cc1cccc(OC(F)(F)F)c1)CN(C(=O)c1cccs1)C2	-1%[70.6 µM]
51	O=C(CN1C(=O)C2(CCNCC2)Nc2ccccc21)NC1CCCCCC1	6%
52	CC(C)(O)CCc1ccc(C(=O)N2CCC(c3cccc(O)c3)CC2)cc1	-15%
53	Cc1cccc([S+](=O)([O-])N2CCC3(CC2)OCCN(Cc2ccccc2)C3=O)c1	-11%[70.6 µM]
54	COC(=O)c1cn([C@H]2CO[C@H]3[C@@H]2OC[C@@H]3NC(=O)COc2ccccc2)nn1	-3%[70.6 µM]
55	Cc1ccc(-n2cccc2CC(=O)NC2CCCCC2)cc1	-3%
56	Cc1ccc(S(=O)(=O)N2CCC(CCC(=O)N3CCN(C)CC3)CC2)cc1	2%
57	Cc1cccnc1C(=O)NC1CCN(c2ccc(=O)n(C)n2)CC1	5%
58	COc1ccc(CN2C[C@@H](C(N)=O)[C@H](c3nc(C)no3)C2)c(Cl)c1OC	-11%
59	COc1cccc(C(=O)N2C(C(=O)NCc3ccccc3)COC23CCN(C(=O)C2CC2)CC3)c1 (stereo not drawn)	-3%
60	COc1c(F)c(F)c(CN2CC(=O)N(C)c3ccccc3C2=O)c(F)c1F	2%
61	O=C(NC1CCCC1)c1ccc(OC2CCN(C(=O)C3CCCO3)CC2)c(Cl)c1 (stereo not drawn)	-13%
62	CCCCN(CCC(=O)NCCc1ccccc1)C(=O)c1cc(C)oc1C	u
63	CN(C)c1cc(N2CCCC(NC(=O)Cc3ccc(F)cc3)C2)ncn1 (stereo not drawn)	0%
64	O=C(c1ccc2[nH]ccc2c1)N1CC[C@@H]2COCCN(Cc3cccnc3)[C@@H]2C1	3%
65	O=C(Cn1nc2c(cc1=O)CCCC2)Nc1ccc(F)c(F)c1F	-3%
66	COc1ccccc1CN1CCN(C(=O)C2CCCN(Cc3cccnc3)CCC(=O)NCC2)CC1 (stereo not drawn)	-15%
67	COc1ccc2[nH]c(=O)c(CCC(=O)NCCc3ccccn3)cc2c1	1%
68	CSc1nccc(-c2cc(NCc3cccnc3)nc3[nH]ccc23)n1	3%

Quoted at random: two entries already listed, in no set order.
nr	SMILES	hNpr1 antagonist
61	O=C(NC1CCCC1)c1ccc(OC2CCN(C(=O)C3CCCO3)CC2)c(Cl)c1 (stereo not drawn)	-13%
68	CSc1nccc(-c2cc(NCc3cccnc3)nc3[nH]ccc23)n1	3%

Part of the list above, set out differently:
36) COCCc1nncn1C1CCN(C(=O)Cc2c(F)cccc2Cl)CC1
- hNpr1 antagonist: 3%
32) CN(C)c1ccc(C(=O)NC2CCN(c3cc(-c4cccs4)[nH]n3)C2)cc1 (stereo not drawn)
- hNpr1 antagonist: -3%
2) CC(C)c1nnc(C2CN(C(=O)CCC3CCCCC3)CC23CCOCC3)o1 (stereo not drawn)
- hNpr1 antagonist: 2%
24) O=C(Nc1cccnc1)[C@@H]1C[C@@H](c2ccc(F)cc2)N(Cc2ccccc2)C1
- hNpr1 antagonist: u

The listing continues:
nr	SMILES	hNpr1 antagonist
69	OCC1(CCCc2ccccc2)CCN(Cc2cccn2-c2nccs2)CC1	1%
70	CCn1nc(CC(C)C)cc1C(=O)NCc1cc(-c2cccc(F)c2)no1	-2%
71	COC1CCOC2(CCN(C(=O)c3cccc(F)c3)CC2)C1 (stereo not drawn)	2%
72	CN1CC(=O)N(c2ccccc2F)Cc2c1ncnc2N1CCN(c2ncccn2)CC1	-2%
73	CC1(c2noc(C3CCOCC3)n2)CCN(Cc2ccc(OCC(N)=O)cc2)CC1	-10%
74	CC(C)(C)OC(=O)N1CCC(n2c(=O)[nH]c3cccnc32)CC1	-1%[70.6 µM]
75	Cc1ncsc1CN1CCC2(CC1)CN(Cc1ccccc1)CC2CO (stereo not drawn)	-11%
76	CO[C@H]1COCCN(C(=O)c2cccnc2)C1	5%[70.6 µM]
77	c1coc(-c2noc(CN3CCCC3c3nc(-c4ccncc4)no3)n2)c1 (stereo not drawn)	4%
78	O=C(NCc1ccc(F)cc1F)c1nnn2c1COC(c1ccc(Cl)cc1)C2 (stereo not drawn)	-23%
79	Cc1cccc(CNC(=O)c2csc(N3CCN(c4ccccc4)CC3)n2)c1	13µM*
80	COC(=O)c1ccc(NC(=O)N2CC(Oc3cccc(-c4nc(C)no4)c3)C2)cc1	13µM*
81	Cc1ncsc1CCC(=O)NCc1cc2n(n1)CCN(C(=O)N(C)C)C2	7%
82	CN(Cc1cccc(O)c1)C(=O)c1cc(COc2ccccc2F)[nH]n1	-11%
83	Fc1ccc(-c2noc(-c3nnn4c3COC(c3ccc(F)cc3)C4)n2)cc1 (stereo not drawn)	-3%
84	O=C1COc2ccc(OCc3ccccc3)nc2CN1Cc1ccccc1F	u
85	CCC1=C(C(=O)OC)C(c2ccccc2C)N2C(CC(=O)N3CCCC3)=CSC2=N1 (stereo not drawn)	u
86	COc1ccc(F)cc1-c1ccc(COc2ccc3c(cnn3CCC(=O)O)c2)cc1	2%[70.6 µM]
87	O=C1CC(c2ccccc2)N(C(=O)CNC(=O)c2cccs2)CCCCCCN1 (stereo not drawn)	4%
88	COCCn1cc2c3c(cccc31)CN(C(=O)COc1cccc(C)c1)CC2	-22%
89	CCNc1ncnc2sc3c(c12)CCN(Cc1cccnc1)C3	-1%
90	CC1(c2cccnc2)N(Cc2ccccc2)C(=O)OC12CCN(C(=O)CN1CCOCC1)CC2 (stereo not drawn)	-1%
91	O=C(Cc1ccc(Br)cc1)NCc1nnc2ccc(-c3ccccc3)nn12	12%
92	COCCN[C@H]1C[C@@H]2c3[nH]c4ccccc4c3C[C@@H](C(=O)OC)N2[C@H](c2ccccc2)C1	-14%[70.6 µM]
93	CC(C)(C)CC(=O)NC[C@H]1O[C@H](Cc2cc(-c3ccc(F)cc3)on2)CC[C@@H]1O	-27%[70.6 µM]
94	CO[C@H]1C(=O)N(C2CCN(S(=O)(=O)c3c(C)nn(C)c3C)CC2)[C@H]1c1ccncc1	0%
95	COc1ccc(C(=O)N2C[C@@H](F)C[C@H]2C(=O)N2CCCCC2)c(C)c1	2%
96	O=C(COc1ccccc1)NC[C@H]1Cn2c(-c3ccc(F)cc3)cnc2CO1	-13%[70.6 µM]
97	O=C(C1CCOCC1)N1CC(Oc2ccc(-c3nc(-c4ccccc4)no3)cc2)C1	u
98	Cc1ccsc1CN(C)C(=O)C1CCCN(C2CCN(C(=O)C3CC3)CC2)C1 (stereo not drawn)	0%
99	COCCN1C[C@H]2CN(Cc3ccccc3)CCN2C1=O	4%[70.6 µM]
100	COc1cc(C)cc(C(C(=O)O)N2CCN(c3cnccn3)CC2)c1OC (stereo not drawn)	4%
101	O=C1CC(c2noc(-c3ccc(F)c(Cl)c3)n2)CN1c1ccc(F)cc1 (stereo not drawn)	-18%
102	c1ccc(Cc2nnc([C@H]3CCN(CC4CCCCC4)C3)o2)cc1	3%[70.6 µM]
103	COc1ccc(-c2ccc3c(c2)C(=O)N2CC[C@H](NC(=O)COCC(=O)O)[C@H]2C(=O)N3)cc1	1%
104	O=C1CC(c2ccccc2)N(C(=O)CNC(=O)C2CCOCC2)CCCCCN1 (stereo not drawn)	2%
105	COc1ccccc1-c1cc2c(ccn2C)c(C(=O)NCCc2cnc[nH]2)n1	-2%[70.6 µM]
106	CCC(C)C1=NS(=O)(=O)c2cc(NC(=O)c3ccco3)ccc2N1c1ccccc1 (stereo not drawn)	2%
107	CN(C)c1ccc2nnc(-c3cc(C(=O)NCCc4ccccn4)ccn3)n2n1	0%[70.6 µM]

Screening data from PubChem BioAssay.

A portion of the library, so the mix of outcomes need not match the whole.
